2A firefly – lowers the firefly signal of an FMDV 2A StopGo reporter. actives 0.23% (n = 120,000). Potency, µM (titrated, usually from 57.5 µM), without a hit: at the top dose signal change, negative = less light. HEK cells with a luciferase reporter of 2A StopGo recoding; active = well fitted falling curve with a large enough effect; inconclusive = small, poorly fitted or top-dose-only effect; inactive = no such curve, though single readings can be large or run the other way; further: nearly all actives have a fitted effect of over 60% in size; overnight with compound
StopGo RLuc – FMDV 2A StopGo reporter, Renilla signal; AID 1745857; actives 0.32% (n = 120,000); HEK cells with a luciferase reporter of 2A StopGo recoding; Potency, µM (titrated, usually from 57.5 µM), for the others: top-dose signal change, negative = less light; active means well fitted falling curve with a large enough effect; inconclusive means small, poorly fitted or top-dose-only effect; inactive means no such curve, though single readings can be large or run the other way; further: nearly all actives have a fitted effect of over 55% in size; overnight with compound
Numbers without * were called inactive; ? = inconclusive; & = joins results of further samples; [ ] = remark or other dose. On the % scale 0 is the no-effect control and ±100 the full control effect; potency means the concentration at half of the fitted maximal effect.

Order of results – 2A firefly	StopGo RLuc
1	O=C(CSC1=Nc2ccccc2N=C(c2ccc(F)cc2)C1)Nc1ccccc1
→ 66.5%[activator]	21.7%
2	Cn1cc(S(=O)(=O)N2CCC(C(=O)Nc3ccccc3OC(F)F)CC2)cc1C(N)=O
→ -8.4%	-3.5%
3	CC(Nc1ncccc1[N+](=O)[O-])c1ccc(Cl)cc1Cl (stereo not given)
→ -10.1%	-1.4%
4	Cn1cnnc1-c1cccc(NC(=O)c2ccc3c(c2)OCO3)c1
→ 59.1%[activator]	-5.1%
5	Cn1c(=O)oc2cc(S(=O)(=O)N3CCCC(C(=O)Nc4ccc(Br)cc4F)C3)ccc21 (stereo not given)
→ -9.2%	-6.2%
6	C=CCN(CC(F)(F)F)C(=O)c1nc(-c2ccccc2)n(-c2ccccc2)n1
→ -6.5%	33.4%[activator]
7	O=C(Nc1ccc2c(c1)OCCO2)NC1(C(F)(F)F)Oc2ccccc2O1
→ ?	57.1%[activator]
8	Cc1ccc(C(=O)NC(c2ccc3c(c2)OCCCO3)C(C)C)cn1 (stereo not given)
→ 8.7%	6.8%
9	Oc1cccc(Nc2cc(-c3ccccc3)ncn2)c1
→ 148.5%[activator]	3.8%
10	COc1ccc(C2CC(=O)Nc3c2c(C)nn3-c2ncnc3nc[nH]c23)cc1O (stereo not given)
→ 10.4%	-0.5%
11	COc1ccc(CCC(=O)NCCc2csc(-c3cccc(F)c3)n2)cc1
→ 8.2%	22.5%
12	Cn1nc(C(=O)Nc2cc(Cl)ccc2N2CCCCC2)c2ccccc2c1=O
→ -1.7%	-9.5%
13	Cc1ccc2[nH]cc(CCNC(=O)c3cccc4ccccc34)c2c1
→ 4.5%	80.9%[activator]
14	COc1ccccc1C(=O)COC(=O)Cc1coc2cc3c(cc12)CCC3
→ 16.5%	14.7%
15	CCCC(=O)n1nc(-c2ccc(Cl)cc2)nc1N
→ 63.3%[activator]	-8.8%
16	CC(C)Cn1cnc2c1c(=O)n(CC(=O)NCC(F)(F)F)c(=O)n2Cc1ccccc1
→ 2.1%	1.7%
17	N#CC1(NC(=O)CSC2=Nc3ccccc3CS2)CCCCC1
→ -29.5%	0.0%
18	COc1ccc(C(=O)c2ccccc2)c(OCc2ccccc2C#N)c1
→ ?	-5.7%[1.06 µM]
19	O=C1CCC(C(=O)OCc2ccc(Br)cc2)=NN1
→ -0.6%	-6.1%
20	CC(C)Cn1nc(C(=O)Nc2ccc(SC(F)F)cc2)c2ccccc2c1=O
→ 0.0%	4.6%

Retrieved one by one from above, 2 records:
Order of results – 2A firefly	StopGo RLuc
4	Cn1cnnc1-c1cccc(NC(=O)c2ccc3c(c2)OCO3)c1
→ 59.1%[activator]	-5.1%
9	Oc1cccc(Nc2cc(-c3ccccc3)ncn2)c1
→ 148.5%[activator]	3.8%

Continued.
Order of results – 2A firefly	StopGo RLuc
21	Cc1ccc(CNc2nc3ccccc3nc2NS(=O)(=O)c2ccc(C)cc2)cc1
→ 0.0%	16.5%
22	COc1cc(/C=C2\CCC(C3CCCC3)C2=O)ccc1OCCC(C)C (stereo not given)
→ 22.0%	3.2%
23	CCC(Cn1nnc2ccccc2c1=O)NC(=O)Nc1ccc(C)c(C)c1 (stereo not given)
→ -5.3%	65.8%[activator]
24	CCCCN(Cc1ccco1)C(=O)Cn1ncc2c([nH]c3ccccc32)c1=O
→ -14.1%	5.8%
25	Cc1cc(C(C)(C)C)cc(C)c1CS(=O)Cc1cccc(F)c1 (stereo not given)
→ 1.1%	4.6%
26	COc1ccc(-c2nc(CNC(=O)Nc3cccc(OC)c3)c(C)o2)cc1
→ 20.7%	9.8%
27	O=C(NC1CC(=O)N(c2ccc3c(c2)OCCO3)C1)c1ccc(S(=O)(=O)N2CCOCC2)cc1 (stereo not given)
→ 1.9%	-5.1%
28	COc1cc(NS(=O)(=O)c2cc3c(cc2C)n(C)c(=O)c(=O)n3C)cc(OC)c1
→ 15.7%	47.6%[activator]
29	S=C(NCc1ccccc1)NCc1ccc(Cl)cc1Cl
→ ?	0.0%
30	CCOc1ccc(NC(=O)C2CCN(c3nnc(C)c4c(C)n(-c5ccccc5)nc34)CC2)cc1
→ -10.2%	-3.3%
31	CCCCOc1ccc2c(C)c(CCC)c(=O)oc2c1
→ 211.5%[activator]	19.2%
32	CCc1nc(NCc2ccncc2)c(C#N)c2c1CCCC2
→ 7.08µM*	?
33	COc1ccc(NC(=O)C(=O)NCCc2csc(-c3ccc(Cl)cc3)n2)cc1
→ -8.4%	-13.3%
34	CCOC(=O)c1ccc(NC(=O)c2nsc3ccccc23)cc1
→ 5.4%	4.6%
35	CCC1CCCCN1S(=O)(=O)c1cc2c(cc1C)NC(=O)CO2 (stereo not given)
→ 21.6%	70.8%[activator]
36	Cc1c(S(=O)(=O)N2CCCC2c2cccc(F)c2)cnn1C(F)F (stereo not given)
→ -12.9%	3.3%
37	CCC(Oc1ccccc1F)C(=O)Nc1c(C(=O)c2ccccc2)oc2ccccc12 (stereo not given)
→ -13.6%	-7.1%
38	Cc1cc(C)c2oc(C(=O)NCCc3nc(-c4ccccc4)no3)cc(=O)c2c1
→ -6.7%	-9.8%
39	Cc1cccc(NC(=O)c2c(C)oc3ncnc(N4CCCCC4)c23)c1C
→ -18.5%	6.4%
40	CCN(CC)c1ccc(C=Nc2ccc(Br)c(Cl)c2)cc1
→ 30.3%[activator]	5.1%
41	CC(C)NC(=O)NC(=O)CN(C)Cc1ccccc1
→ 24.5%	-4.6%
42	CCOc1ccc(C(=O)c2cn(CC(=O)Nc3ccc(OC)cc3)c3cc4c(cc3c2=O)OCO4)cc1
→ -28.0%	-20.4%
43	CN(C)S(=O)(=O)c1ccc(C(=O)OCC(=O)Nc2ccccc2C(F)(F)F)cc1
→ 36.2%[activator]	31.5%[activator]
44	CCN(CC)S(=O)(=O)c1ccc2c(c1)N(CC(=O)Nc1cccc(C(C)=O)c1)C(=O)CO2
→ 24.0%	166.1%[activator]
45	COCCn1c(N2CCN(Cc3c(Cl)cccc3Cl)CC2)nc2c1c(=O)[nH]c(=O)n2C
→ 10.2%	-6.5%
46	COc1cccc(CNC(=O)N2CCc3c(sc4c3CCCC4)C2c2ccc(F)cc2)c1 (stereo not given)
→ 6.9%	27.2%
47	COC(=O)c1ccc(OC(=O)c2ccc(N(C)C)cc2)cc1
→ 0.0%	2.2%
48	CCCOc1ccc(-c2nc(N3CCCCC3)c3ccccc3n2)cc1
→ -3.8%	-8.3%
49	Cc1cccc(CNC(=O)CCCn2c(=O)c3cccn3c3ccc(F)cc32)c1
→ -3.4%	5.2%
50	Cc1cccc(C)c1NC(=O)CN(C)C(=O)COc1ccc2oc3c(c2c1)CCCC3
→ ?	?
51	O=C(NCCc1cccnc1)c1cccc(F)c1
→ 0.0%	4.8%
52	COC(=O)C1CN(C2CCCC2)CCS(=O)(=O)N1Cc1cn(Cc2ccc(OC)cc2)nn1 (stereo not given)
→ 0.9%	-9.5%
53	COc1ccc(-c2cc(C)no2)cc1S(=O)(=O)N1CCN(c2ccccc2F)CC1
→ -19.9%	24.6%
54	Cc1ccccc1CNC(=O)c1cc2c(C)nn(C)c2s1
→ ?	?
55	Cc1ccc(-c2nc(CSc3n[nH]c(N)n3)no2)cc1
→ 151.4%[activator]	-0.4%
56	CC(N(C)CC(=O)NC(N)=O)C(C)(C)C (stereo not given)
→ 2.4%	14.6%
57	O=C(NCCc1ccccn1)C1CC1
→ 18.1%	9.2%
58	CCCCOc1ccc(C(=O)Nc2nnc3n2CCS3)cc1
→ 300.0%[activator]	37.9%[activator]
59	C/C=C/Cn1c(SCC(C)C)nc2c1c(=O)[nH]c(=O)n2C
→ 4.4%	-4.7%
60	CCN(CCC(F)(F)F)C(=O)c1cc2cccc([N+](=O)[O-])c2[nH]1
→ 4.8%	-3.9%
61	CCOc1ccc(-c2noc(-c3nnn(-c4ccccc4OCC)c3N)n2)cc1
→ -1.9%	-2.1%
62	CC(C)(CO)NCc1cc(=O)oc2cc3c(cc12)CCC3
→ 55.6%[activator]	-3.5%
63	CC(C)C(=O)N(Cc1cc2ccccc2[nH]c1=O)c1ccccc1
→ -15.6%	-13.9%
64	O=C(OCC(=O)N1CCCC1)c1cc(-c2ccco2)nc2ccccc12
→ 40.5%[activator]	5.4%
65	Cc1cccn2cc(CN3CCN(S(=O)(=O)c4cccc(C(F)(F)F)c4)CC3)nc12
→ 20.8%	24.5%
66	CC1=C(C(=O)NCc2ccccc2C)C2(CCCCCC2)OC1=O
→ 155.0%[activator]	75.6%[activator]
67	COc1ccccc1OC(C)C(=O)Nc1cccc(-c2nc3ccccc3s2)c1 (stereo not given)
→ 97.9%[activator]	12.3%
68	CC(Sc1ncccn1)c1cccc(NC(=O)c2ccccc2)c1 (stereo not given)
→ ?	?
69	COCCCNC(=O)c1cc(-c2cccs2)nc2ccccc12
→ 33.1%[activator]	35.3%[activator]
70	OC12CC3CC(C1)CC(NCc1cccc4ccccc14)(C3)C2
→ 0.9%	-2.7%
71	O=S(=O)(c1ccc2c(c1)OCCO2)c1nc(-c2ccccc2F)oc1N1CCOCC1
→ -7.5%	68.8%[activator]
72	COCCNC(=O)c1cc(-c2ccccc2)nc2ccc(C)cc12
→ 13.7%	?
73	CC(=O)N1CCN(c2nc(-c3ccco3)c3c(c2C#N)CC(C)(C)SC3)CC1
→ -13.2%	-15.9%
74	Cc1c(C(=O)NCc2cccc(F)c2)oc2c1-c1[nH]ncc1CC2
→ -9.7%	-15.1%
75	COc1ccc(NC(=O)c2ccccc2NC(=O)CSc2ncnc3ccccc23)cc1
→ 134.5%[activator]	-9.9%
76	COc1ccc(CNC(=O)C2CCN(C(=O)N3CCOc4ccc(Cl)cc43)CC2)cc1
→ 0.0%	-8.2%
77	Cc1cc(C)n2nc(CNS(=O)(=O)c3ccc(Cl)cc3)nc2n1
→ -19.0%	-13.7%
78	C#CCN1CCN(Cc2ccc(OC)c(OC)c2)CC1
→ 7.1%	2.2%
79	CO/N=C(\C(=O)N[C@@H]1C(=O)N2C(C(=O)O)=C(CSc3nc(=O)c(O)nn3C)CS[C@H]12)c1csc(N)n1
→ 19.6%[11.5 µM]	6.6%
80	COc1ccc(-n2c(-c3ccco3)nc3c(cnn3-c3ccccc3C)c2=O)cc1
→ 1.4%&24.5%	-3.5%&-8.5%

Ordered by heavy-atom count (high to low): some entries from above.
Order of results – 2A firefly	StopGo RLuc
79	CO/N=C(\C(=O)N[C@@H]1C(=O)N2C(C(=O)O)=C(CSc3nc(=O)c(O)nn3C)CS[C@H]12)c1csc(N)n1
→ 19.6%[11.5 µM]	6.6%
71	O=S(=O)(c1ccc2c(c1)OCCO2)c1nc(-c2ccccc2F)oc1N1CCOCC1
→ -7.5%	68.8%[activator]
61	CCOc1ccc(-c2noc(-c3nnn(-c4ccccc4OCC)c3N)n2)cc1
→ -1.9%	-2.1%
63	CC(C)C(=O)N(Cc1cc2ccccc2[nH]c1=O)c1ccccc1
→ -15.6%	-13.9%
77	Cc1cc(C)n2nc(CNS(=O)(=O)c3ccc(Cl)cc3)nc2n1
→ -19.0%	-13.7%

Next part.
Order of results – 2A firefly	StopGo RLuc
81	CCc1ccc2nc(-c3ccc(C)o3)cc(C(=O)O)c2c1
→ 8.3%	-11.5%
82	C(=C\c1ccccc1)/CNC12CC3CC(CC(C3)C1)C2
→ -9.2%	-10.2%[1.06 µM]
83	Cn1c(=O)c2c(nc(Sc3ncccn3)n2Cc2ccc(Cl)cc2)n(C)c1=O
→ -6.4%	-7.4%
84	Cc1[nH]c2ccccc2c1C(C(=O)O)N1CCN(Cc2ccccn2)CC1 (stereo not given)
→ -5.1%	-14.3%
85	O=C1CC(C(=O)N2CCN(S(=O)(=O)c3c(Cl)cccc3Cl)CC2)c2ccccc2N1 (stereo not given)
→ 16.1%	33.6%[activator]
86	OCCCc1ccccc1
→ -2.3%[11.5 µM]	3.8%
87	CCOc1ccc2c(=O)c(Oc3ccccc3OCC)coc2c1
→ 103.5%[activator]	10.2%
88	CN(Cc1ccccc1)c1ccccc1NCC(=O)NC(N)=O
→ 0.0%	14.1%
89	O=C(Nc1ccc(F)c(F)c1)c1cc(-c2ccco2)nc2ccccc12
→ -10.9%	-10.2%
90	Cc1ccccc1CNc1ncnc2ccccc12
→ 11.2µM*	?
91	COc1cccc(C2C=C(c3ccc(C)c(C)c3)Nc3nnnn32)c1OC (stereo not given)
→ 0.4%	-9.7%
92	CCc1c(C)sc2c1CCN(C(=O)Nc1cc(Cl)c(OC)cc1OC)C2c1ccccc1 (stereo not given)
→ -2.9%	6.3%
93	CC(Nc1oc(COc2ccccc2)nc1C#N)c1ccccc1 (stereo not given)
→ 75.5%[activator]	14.6%
94	CCOC(=O)c1c(C)[nH]c(C)c1S(=O)(=O)N1CCC(C(=O)Nc2ccccn2)CC1
→ -6.1%	-2.8%
95	CN1CCN(c2nc3c([nH]2)c(=O)n(C)c(=O)n3C)CC1
→ 6.4%	-1.9%
96	O=C(CC(NC(=O)c1ccccc1)c1ccccc1)NC12CC3CC(CC(C3)C1)C2 (stereo not given)
→ -0.6%	23.1%[1.06 µM]
97	CCc1cccc(C)c1NC(=O)Cn1ccn(Cc2ccc(Cl)cc2)c(=O)c1=O
→ -18.4%	1.0%
98	CCC(=O)N(CCC1(c2ccc(C)cc2)CCOC(C)(C)C1)Cc1ccccc1 (stereo not given)
→ -25.3%	88.8%[activator]
99	Cc1nn(C(C)C(=O)NC2CCCCC2)c(=O)c2c1sc1ccccc12 (stereo not given)
→ 32.1%[activator]	30.0%[activator]
100	Cc1noc(C)c1CN1CCN(C(=O)c2cn(C)nc2-c2ccc3c(c2)OCCCO3)CC1
→ 56.6%[activator]	-4.8%
101	Cc1cc(C)c(NC(=O)CSc2ncc3c(n2)-c2cc(Cl)ccc2N(C)S3(=O)=O)c(C)c1
→ 0.2%	3.4%
102	O=C(O)CCCc1ccc(N(CCCl)CCCl)cc1
→ 1.1%	-7.8%
103	CC(C)CC(NC(c1ccccc1)(c1ccccc1)c1ccccc1)C(=O)O (stereo not given)
→ 17.2%	4.9%
